Bioassay records as filed in PubChem.
RE007 growth inh = qHTS Assay for Inhibitors of the HIV-1 protein Vpr. S. pombe RE007 Vpr strain, BacTiter-Glo ATP luminescence, 24 h; control for the full effect not named in the record. Potency, µM (top dose mostly 92.2 µM), without a hit: top-dose activity change, negative = less growth. 360,000 tested, 0.21% active. AID 651644, 2012; active = well fitted falling curve with a large enough effect; inconclusive = small, poorly fitted or top-dose-only effect; inactive = no such curve, though single readings can be large or run the other way;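 also: % is scaled to controls: 0 for no effect and ±100 for the full control effect; nearly all actives have a fitted effect of over 50% in size; the assay follows cell death caused by Vpr and the record does not say whether a fall means rescue or toxicity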
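Fission yeast RE007 carrying one integrated HIV-1 vpr copy, seeded at OD 0.01 in PMG+AL medium with 23 nL pinned compound. Grown 24 h at 30 degrees; viability read by BacTiter-Glo luminescence after 5 min.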
Lassa entry inh = qHTS for Inhibitors of binding or entry into cells for Lassa Virus; 300,000 tested, 1.2% active; Potency, µM (titrated, usually from 37.9 µM), inactives show top-dose activity change, negative = inhibition, usual class: inhibitors; Lassa virus pseudotype entry inhibition, cell reporter; control for the full effect not named in the record; AID 540256, 2011; active means well fitted inhibition curve with a large enough effect; inconclusive means small, poorly fitted or top-dose-only effect, or effect the other way; inactive means flat fitted curve, though single readings scatter; tested in HEK293 cells; also: % is scaled to controls: 0 for no effect and ±100 for the full control effect; nearly all actives have a fitted effect of over 50% in size; luciferase read-out
SARS PLpro yeast = qHTS of Yeast-based Assay for SARS-CoV PLP | Potency, µM (top dose mostly 32.9 µM), without a hit: at the highest dose activity, positive = growth rescue | S. cerevisiae expressing SARS-CoV PLpro, growth rescue; control for the full effect not named in the record | 330,000 tested, 0.19% active | AID 485353, 2010; also: 0% is about no effect; nearly all actives have a fitted effect of over 55% in size; growth read by luminescence after 48 h
Cruzain noTriton = qHTS Assay for Promiscuous and Specific Inhibitors of Cruzain (without detergent); Potency, µM, inactives show max response, negative = inhibition, usual class: inhibitors; 200,000 tested, 2.3% active; Cruzipain (Trypanosoma cruzi), P25779; purified cruzain, Z-FR-AMC fluorescence, no detergent; active = well fitted curve in the direction sought with a large enough effect; inconclusive = small, poorly fitted or top-dose-only effect, or another doubt; inactive = no such curve, though single readings can be large; an effect the other way counts as inactive or inconclusive;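 also: plate controls were enzyme without inhibitor for no effect and buffer without enzyme for full effect; nearly all actives have a fitted effect of over 40% in size; top concentration of the series not given in the record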
Target sequence (P25779 123-467 limits assumed): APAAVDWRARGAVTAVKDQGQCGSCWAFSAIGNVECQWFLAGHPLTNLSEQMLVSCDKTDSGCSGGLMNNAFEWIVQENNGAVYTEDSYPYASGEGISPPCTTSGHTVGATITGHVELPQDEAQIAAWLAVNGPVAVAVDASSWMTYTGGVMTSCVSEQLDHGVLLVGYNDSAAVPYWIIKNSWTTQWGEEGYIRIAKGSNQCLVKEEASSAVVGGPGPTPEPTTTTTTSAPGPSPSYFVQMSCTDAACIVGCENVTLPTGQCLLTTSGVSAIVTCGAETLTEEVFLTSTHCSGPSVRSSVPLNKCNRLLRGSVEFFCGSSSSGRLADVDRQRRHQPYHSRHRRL
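Purified cruzain at 1.5 nM, pre-incubated 15 min with compound at room temperature in 100 mM sodium acetate pH 5.5, 5 mM DTT, 0.00005% Triton X-100. Reaction started with 2 uM Z-FR-AMC; AMC fluorescence increase over 60 s gives rate.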
2A StopGo = High Throughput Screening for Foot and Mouth Disease Virus Antivirals; Potency, µM (doses to about 57.9 µM), for inactives: at the highest dose signal change, negative = less light; 410,000 tested, 1.2% active; human cells with a luciferase reporter of 2A StopGo recoding; control for the full effect not named in the record; active = well fitted falling curve with a large enough effect; inconclusive = small, poorly fitted or top-dose-only effect; inactive = no such curve, though single readings can be large or run the other way; tested in HEK293T cells; also: % is scaled to controls: 0 for no effect and ±100 for the full control effect; nearly all actives have a fitted effect of over 45% in size; luciferase light after 4 h
NS1 function inh = qHTS Assay for Inhibitors of Influenza NS1 Protein Function | 270,000 tested, 0.4% active | AID 2326, 2010 | S. cerevisiae slowed by influenza A NS1, growth recovery by OD600 | Potency, µM (series often up to 46.1 µM), without a hit: top-dose activity, positive = more growth; also: actives are rising curves; nearly all actives have a fitted effect of over 50% in size
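In this qHTS, NS1 from influenza A is expressed in budding yeast, where it slows growth. Cells are switched from glucose to 2% galactose medium (pH 6.0, -URA), treated with compound, and growth recovery is read at OD600.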
Cruzain inh Det = qHTS Assay for Promiscuous and Specific Inhibitors of Cruzain (with detergent); Potency, µM, for the others: max response, negative = inhibition, actives largely listed as inhibitors; Cruzipain (Trypanosoma cruzi), P25779; AID 1478, 2009; purified cruzain, Z-FR-AMC fluorescence, 0.01% Triton; 200,000 tested, 0.43% active; active = well fitted curve in the direction sought with a large enough effect; inconclusive = small, poorly fitted or top-dose-only effect, or another doubt; inactive = no such curve, though single readings can be large; an effect the other way counts as inactive or inconclusive;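 also: plate controls were neutral wells for no effect and buffer without enzyme for full effect; nearly all actives have a fitted effect of over 40% in size; top concentration of the series not given in the record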
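Z-FR-AMC hydrolysis (2 uM substrate) by cruzain (1.5 nM) monitored kinetically at ex 360/em 450 nm after 15 min room-temperature compound exposure; 0.01% Triton X-100, pH 5.5, 5 mM DTT.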
Marburg entry inh = qHTS for inhibitors of binding or entry into cells for Marburg Virus. Marburg virus pseudotyped entry inhibition, cell reporter; control for the full effect not named in the record; about a third of the inactives were read at about 46 µM. Potency, µM (doses to about 37.8 µM), for inactives: at the highest dose activity change, negative = inhibition, hits mostly inhibitors. 300,000 tested, 1.8% active; active = well fitted inhibition curve with a large enough effect; inconclusive = small, poorly fitted or top-dose-only effect, or effect the other way; inactive = flat fitted curve, though single readings scatter; tested in HEK293 cells; about a fifth of its hits are not listed in these tables; also: % is scaled to controls: 0 for no effect and ±100 for the full control effect; luciferase read-out
Starred values were filed as active, the others as inactive; ? = inconclusive; nt = no result given; & = joins results of further samples; [ ] = remark or other dose. Unless noted, calls follow the shape of the dose curve; as a rule, active means well fitted rising curve with a large enough effect; inconclusive means small, poorly fitted or top-dose-only effect; inactive means no such curve, though single readings can be large or run the other way. Potency is read from the fitted curve at half-maximal effect.

SMILES	RE007 growth inh	Lassa entry inh	SARS PLpro yeast	Cruzain noTriton	2A StopGo	NS1 function inh	Cruzain inh Det	Marburg entry inh
Cn1cc(-c2ccccc2)cc(C#N)c1=O	5%	7%[46.1 µM]	2%	nt	-7%	nt	nt	?
O=C(/C=C/c1ccc(F)cc1)NC(=S)NNC(=O)[C@H]1C[C@@H]1c1ccccc1	-4%	nt	14%	nt	17%	-40%	nt	nt
CCCC(=O)c1ccc(N2CCN(C(=O)c3cccs3)CC2)c(F)c1	?	nt	2%	nt	-16%	-9%	nt	nt
COc1cccc2cc(C(C)=O)c(=O)oc12	-15%	-3%	-2%	-5%	-6%	-10%	-1.4%	-10%
NC(=O)c1c(-c2ccccc2)oc2ccc(O)cc12	4%	-12%	1%	-13%	2%	-4%	-1.4%	1%
CCCCN(CC)CCCNC(=O)C1c2ccccc2C(=O)N(C)C1c1cn(C)c2ccccc12 (stereo not given)	-7%	0%	-6%	2%	0%	6%	5.1%	?
Cc1cc(Cl)ccc1NC(=S)NCC(O)c1ccccc1 (stereo not given)	0%	-3%	4%	nt	54%[activator]	18%	nt	8%
COCC(C)NS(=O)(=O)c1ccc(C(=O)NCCCn2ccc3ccccc32)cc1 (stereo not given)	8%	-13%[46.1 µM]	0%	nt	-1%	22%	nt	4%[46.1 µM]
Cc1ccc(C(=O)N/N=C\c2cccnc2)s1	-7%	nt	2%	nt	0%	4%	nt	nt
CS(=O)(=O)Nc1ccc(C(=O)N2CCN(c3ccccc3)CC2)cc1	-14%	-7%	4%	-5%	-11%	-4%	2.5%	11%
COc1ccc(C(=O)NCc2ccc3c(c2)CCN3C(C)=O)cc1OC	nt	14%[46.1 µM]	nt	-4%	6%	nt	1.7%	nt
COc1ccc(CCNC(=O)CN(c2ccc(OC)cc2)S(C)(=O)=O)cc1	1%	?	0%	nt	-6%	-3%	nt	?
CCOc1ccc(S(=O)(=O)NCCC(=O)N2CCCC(C)C2)cc1 (stereo not given)	-12%	22%[46.1 µM]	2%	nt	-4%	nt	nt	32%
CC(/C=C/c1ccccc1)=N\NC(=O)Cn1cncn1	-13%	9%[46.1 µM]	-3%	nt	27%	7%	nt	1%[46.1 µM]
O=C(COC(=O)CNC(=O)c1ccccc1)Nc1ccc(S(=O)(=O)N2CCOCC2)cc1	8%	8%	0%	nt	-9%	nt	nt	?
O=C(Nc1ccc2c(c1)N(S(=O)(=O)c1cccs1)CCC2)c1c(F)cccc1F	18%	?	-13%	nt	28%	nt	nt	?
COc1ccc(CN2CCN(c3ncnc4sc5c(c34)CCCC5)CC2)cc1F	nt	-4%[46.1 µM]	nt	-4%	?	nt	-2.2%	7%[46.1 µM]
CCOc1ccccc1NC(=O)N1CCC(NC(=O)c2ccccc2C)CC1	-2%	-3%	-5%	9%	-8%	-3%	0.6%	?
O=c1oc2ccc3ccccc3c2cc1-c1nnc(Nc2ccc(Cl)cc2Cl)s1	nt	?	nt	6%	-10%	nt	0.4%	nt
COC(=O)c1cc(C(=O)N2CCN(c3ncccn3)CC2)cc([N+](=O)[O-])c1	3%	-12%[46.1 µM]	2%	nt	-3%	-16%	nt	-4%[46.1 µM]
Cc1cc(C)c(S(=O)(=O)Nc2ncn[nH]2)c(C)c1	2%	10%[46.1 µM]	-3%	nt	-12%	2%	nt	0%[46.1 µM]
O=C(NC(=S)Nc1ccc(N2CCOCC2)cc1)c1cncc(Br)c1	-4%	4%	-8%	-3%	-17%	3%	-3.4%	31%
CN(C)c1ccnc(C(=O)O)c1	8%	0%	0%	nt	8%	nt	nt	-9%[46.1 µM]
CSCC[C@H](NC(=O)OC(C)(C)C)c1nnc(SCc2ccc(F)cc2)o1	-1%	?	-19%	2%	?	-60%	-0.4%	?
COc1cccc(CNn2c(-c3cccc(C)c3)nc3ccccc3c2=O)c1O	13%	0%	-8%	0%	-20%	-63%	-6.3%	-16%
Cc1cc(C)c2oc(-c3ccc(Cl)c(NC(=O)c4ccc(C#N)cc4F)c3)nc2c1	-20%	8%	-3%	-12%	23%	0%	1.5%	21%
COC(=O)[C@H](Cc1c[nH]c2ccccc12)NC(=O)NCc1ccc(OC)cc1	-8%	-6%[46.1 µM]	1%	nt	2%	9%	nt	6%[46.1 µM]
COc1ccc(OCC(O)CN(C2CCCCC2)C2CCCCC2)cc1 (stereo not given)	6%	15µM*	-8%	0%	-1%	-4%	-0.3%	?
CCOC(=O)C1(Cc2cccc(OC)c2)CCCN(C(=O)CCSC)C1 (stereo not given)	0%	?	-2%	nt	20%	-10%	nt	?
CC(=O)Nc1ccc(S(=O)(=O)NCCc2csc3nc(-c4ccc(Cl)cc4)nn23)cc1	nt	-26%[46.1 µM]	nt	30%	?	nt	-6.1%	nt
NC1=C(Br)C(=O)c2ccccc2C1=O	11µM*	-10%	-6%	nt	-19%	-49%	nt	?
O=C(NNc1c2ccccc2nc2ccccc12)c1ccc(O)cc1O	-4%	-8%	-1%	?	-24%	6%	-7.8%	-25%
O=C(CSc1nc(-c2ccco2)cc(C(F)(F)F)n1)NCCc1ccccc1	1%	-2%	-1%	22%	1%	-4%	-5.3%	?
Cc1ccc(C)c(OCC(=O)Nc2ccc(N3CCOCC3)cc2)c1	-5%	-9%	-1%	nt	?	4%	nt	11%[46.1 µM]
CCCCN(CC)CCCNC(=O)c1cn(CC)c2ccc(S(=O)(=O)N3CCc4ccccc4C3)cc2c1=O	20%	?	-2%	-8%	0%&-7%	nt	-2.0%	?
COc1ccc(/C=C2\SC(=S)N(CCC(=O)N(CCO)Cc3ccccc3)C2=O)cc1OC	15%	nt	-2%	nt	?	23%	nt	nt
CC(NC(=O)Nc1ccc(F)cc1)C(c1cccs1)N1CCCC1 (stereo not given)	-9%	0%	-20%	0%	-9%	-1%	-1.0%	5%
O=C(c1cccs1)N1CCN(C(=O)N2CCOCC2)CC1	-24%	9%	1%	-6%	15%	1%	2.1%	9%
Cc1ccc2oc(C(=O)NCC(c3ccco3)N3CCCC3)c(C)c2c1 (stereo not given)	1%	nt	14%	nt	-13%	8%	nt	nt
O=C(NCC1CCCO1)C1CC(=O)N(C2CCCCCC2)C1 (stereo not given)	4%	9%	4%	1%	nt	-3%	3.3%	6%
O=C(c1ccco1)N1CCN(S(=O)(=O)c2cccc([N+](=O)[O-])c2)CC1	1%	9%	0%	nt	0%	5%	nt	8%[46.1 µM]
Cc1ccc(S(=O)(=O)NCc2ccccc2)cc1C(=O)NCC(C)(C)N1CCOCC1	19%	7%	-1%	nt	7%	nt	nt	-30%
Cc1cc(C(=O)CSc2nnc(Cc3ccccc3)o2)c(C)n1Cc1ccc2c(c1)OCO2	?	-7%	1%	-20%	-7%	-6%	1.9%	-3%&-3%
Cc1ccc(C)c(NC(=O)CCc2nnc3ccc(NCc4ccco4)nn23)c1	-1%	nt	3%	nt	-2%	-4%	nt	nt
COc1ccc2c(c1)CC(C(=O)Nc1c(C)cc(C)cc1C)CO2 (stereo not given)	nt	-6%[46.1 µM]	nt	-6%	-1%	nt	-0.4%	nt
COc1ccc(CNS(=O)(=O)c2ccc3c(c2)N(C(C)=O)CC(C)S3)cc1 (stereo not given)	7%	?	7%	nt	?	6%	nt	?
CCCn1c(SCC(=O)N2CCOCC2)nnc1-c1ccncc1	3%	12%[46.1 µM]	5%	nt	-2%	3%	nt	11%[46.1 µM]
COc1ccc(N(CC(=O)N2c3ccccc3CC2C)S(=O)(=O)c2c(C)nn(C)c2C)cc1 (stereo not given)	-4%	nt	6%	?	-20%	-15%	-0.5%	0%
COc1ccccc1Cn1c(CNS(=O)(=O)c2c(C)cc(C)cc2C)nc2cccnc21	nt	?	nt	13%	44%[activator]	nt	-4.1%	nt
Cn1cccc1-c1cc(C(=O)N/N=C/c2ccccc2Cl)[nH]n1	-1%	nt	0%	nt	22%	6%	nt	nt
CCOC(=O)c1ccc(NC(=O)CN2C(=O)CN(C(C)=O)C2=S)cc1	11%	nt	4%	nt	4%	?	nt	nt
CN1CCN(c2nnc(-c3cccs3)c3ccccc23)CC1	-8%	-2%	2%	nt	-4%	nt	nt	3%
Cc1ccc(S(=O)(=O)NC2c3cccc4cccc(c34)C2Sc2nc(C)cc(C)n2)cc1 (stereo not given)	20%	?	30%	25µM*	4%	-3%	-2.9%	18µM*
COc1cc(C)ccc1OCCOCCOc1ccccc1Br	-20%	-24%	-5%	11%	1%	-63%	2.2%	2%
Cc1nc(CNS(=O)(=O)c2ccc(Oc3ccccc3)cc2)cs1	0%	-17%	0%	-3%	nt	-13%	-1.3%	?
Cc1cc(OCC(=O)NC(C)C)ccc1Cl	-13%	22%[46.1 µM]	0%	nt	-9%	nt	nt	?
CCOC(=O)C(C)Sc1ncnc2c1c(-c1ccccc1)cn2-c1ccc(OC)cc1 (stereo not given)	-1%	-12%	-4%	2%	?	10%	-6.4%	-4%
OCCC1CN(CCCn2cccn2)CCN1Cc1ccccc1 (stereo not given)	1%	14%	1%	nt	28%	3%	nt	0%[46.1 µM]

Compound profiles, as listed above:
Cc1nc(CNS(=O)(=O)c2ccc(Oc3ccccc3)cc2)cs1 is listed with RE007 growth inh = 0%; Lassa entry inh = -17%; SARS PLpro yeast = 0%; Cruzain noTriton = -3%; 2A StopGo = nt; NS1 function inh = -13%; Cruzain inh Det = -1.3%; Marburg entry inh = ?
COc1cc(C)ccc1OCCOCCOc1ccccc1Br is listed with RE007 growth inh = -20%; Lassa entry inh = -24%; SARS PLpro yeast = -5%; Cruzain noTriton = 11%; 2A StopGo = 1%; NS1 function inh = -63%; Cruzain inh Det = 2.2%; Marburg entry inh = 2%

This is a random part of the collection. About 4.7% of those tested had a hit in this group.
